Mtb growth: Mycobacterium tuberculosis H37Rv growth inhibition, cell based, confirmatory dose response (AID 1949). actives 1.6% (n = 100,000). most inactive calls were filed without a number and no value below 0 was filed. inhibition, % at 10 µg/mL; hits with a dose series show IC50 in µg/mL;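 active = confirmed in a dose series; inconclusive = about 50% or more but not retested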;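 also: bacteria grown 7 days with compound before Alamar blue readout; 0% = untreated bacteria and 100% = reference antibiotic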
* marks the source's active call; other numbers are inactive results; i = inactive; ? = inconclusive. The list is partial. The share of hits here may be higher or lower than overall.

canonical_smiles,Mtb growth
COc1ccc(OC)c(NC(=O)N2CCN(c3ccc(F)cc3)CC2)c1,1%
COC(=O)c1ccc(C(=O)Nc2ccc(CC#N)cc2)cc1,i
CC(C)Cn1c(-c2ccc(Cl)cc2)n[nH]c1=S,i
COc1ccccc1NC(=O)CSc1nnc(Cc2ccccc2)o1,i
CC(=O)N1CCN(c2ccc(NC(=O)COc3ccc(Cl)cc3)cc2)CC1,i
O=C(c1ccc(S(=O)(=O)N2CCOCC2)cc1)N1CCN(c2ccc(F)cc2)CC1,i
Cc1ccc(SC(C)C(=O)NCc2ccc(F)cc2)cc1 (stereo unspecified),4%
COc1ccc(-c2cc(C(F)(F)F)n3nc(C(=O)N4CCN(C)CC4)c(Cl)c3n2)cc1OC,i
CCCc1cc(=O)[nH]c(SCC(=O)Nc2cc(OC)ccc2OC)n1,i
CCn1c(Cc2ccc(OC)cc2)nnc1SCC(=O)Nc1ccccc1F,i
COc1ccc(S(=O)(=O)NCCSCc2ccco2)cc1C,i
COc1ccc(S(=O)(=O)NCc2ccc(F)cc2)cc1,i
O=C(CSc1ccc(Cl)cc1)Nc1ncc2c(n1)CC(c1ccccc1)CC2=O (stereo unspecified),i
CC(NCCC(c1ccccc1)C1CCOC(C)(C)C1)c1cccs1 (stereo unspecified),i
COc1cc(OC)c(OC)cc1/C=N/NC(=O)c1cc(-c2ccc3ccccc3c2)n[nH]1,1%
CC(=O)Nc1cccc(NC(=S)Nc2cccc3ccccc23)c1,i
CNC(=O)C(C)NS(=O)(=O)c1ccc(F)cc1 (stereo unspecified),3%
Cc1cc(Cl)ccc1NC(=O)CN(C)S(=O)(=O)c1ccccc1,i
CCNS(=O)(=O)c1ccc(CCC(=O)NCCC2=CCCCC2)cc1,5%
CCOCCCNS(=O)(=O)c1ccc([N+](=O)[O-])cc1,i
COc1cccc(NC(=O)COc2ccccc2Br)c1,i
COc1ccc(CC(=O)Nc2cc(Cl)ccc2C(=O)O)cc1,11%
CCOc1ccc(NC(=O)C(C)Oc2ccccc2OC)cc1 (stereo unspecified),i
CCOc1ccccc1Oc1coc2cc(OCC(=O)OC(C)(C)C)ccc2c1=O,i
Cc1cc(C)c2nc(/N=C(\N)NC(=O)C(C)(C)C)nc(C)c2c1,38%
O=C1CC(Nc2ccc(N3CCOCC3)cc2)C(=O)N1 (stereo unspecified),i
CCCN(CCC)S(=O)(=O)c1ccc(NC(=O)c2ccccc2OC(C)=O)cc1,i
CSCCNC(=O)CSc1ccc(Cl)cc1,i
CC(=O)Oc1ccccc1C(=O)OCC(=O)c1ccc(Cl)c(Cl)c1,i
CCOc1cc(CNc2ccc(O)cc2)ccc1OCc1ccc(Cl)cc1Cl,i
O=S1(=O)N=C(Nc2ccc3c4c(cccc24)CC3)c2ccccc21,i
Cc1nc(/N=C(\N)Nc2cccc([N+](=O)[O-])c2)[nH]c(=O)c1C,i
CN1CCN(c2ccc([N+](=O)[O-])cc2C(=O)c2ccc(Br)cc2)CC1,i
Cn1c(CNC(=O)c2cccc([N+](=O)[O-])c2)nnc1SCC(=O)Nc1cc(C(F)(F)F)ccc1Cl,i
CN(C1CCCCC1)S(=O)(=O)c1ccc(NC(=O)c2cccs2)cc1,i
Cn1c(/C(C#N)=C/c2cccc3ccccc23)nc2ccccc21,1%
Cc1ccc(N(CC(=O)Nc2cccc(F)c2)S(C)(=O)=O)cc1C,i
CCOc1ccc(C(=O)Nc2ccc(-c3nc4cc(C)cc(C)c4o3)cc2)cc1,1%
Cc1c(C#N)c2ccccc2n1CC(=O)NC(C)(C)C,i
Cc1cc(C)n(C(=O)c2cc(Cl)ccc2Cl)n1,1%
Cc1c(Cl)cccc1NC(=S)NC1CC(C)(C)NC(C)(C)C1,i
Cc1ccc(S(=O)(=O)NCCC(C)C)cc1[N+](=O)[O-],i
COc1ccc(NS(=O)(=O)c2ccc(OC)c(Cl)c2Cl)cc1OC,i
O=C(NCc1ccccc1Cl)c1cc(F)c(F)cc1Cl,i
CCCCc1ccc(NC(=S)Nc2c(C)n(C)n(-c3ccccc3)c2=O)cc1,i
COc1cc(C(=O)NC2CCCC2)cc(OC)c1OC,i
Oc1ccc(NCc2ccc(OCc3ccc(Cl)cc3Cl)cc2)cc1,8%
OCCNC(=S)Nc1ccc(Oc2ccccc2)cc1,i
CCC(C)NCCCCOc1ccc(Cl)cc1C(C)(C)C (stereo unspecified),4.5µg/mL*
COc1ccc(S(=O)(=O)N2CCOCC2)cc1N(C)S(=O)(=O)c1ccccc1,i
CCCc1cc2c3c(c(=O)oc2cc1OC(=O)CCNC(=O)OC(C)(C)C)CCC3,i
O=S(=O)(c1cccs1)N1CCN(c2ccccc2Cl)CC1,3%
CSc1ccccc1NC(=S)Nc1cccnc1,i
CC1CCCC(C)N1C(=O)CSc1nnc(-c2ccccc2)n1-c1ccc(F)cc1 (stereo unspecified),i
O=C(CCNc1ccc(Cc2ccncc2)cc1)c1ccc([N+](=O)[O-])cc1,4.4µg/mL*
NC(=O)Nn1c(CCC(=O)O)ccc1-c1ccc(Cl)cc1,i
CC(C)C(=O)NC(c1ccco1)c1cc([N+](=O)[O-])c2cccnc2c1O (stereo unspecified),i
Cc1cccc(NC(=O)c2ccc(NC(=O)c3ccc(Cl)cc3Cl)cc2)c1,i
CC(C)NC(=O)c1cccc(COc2ccc3ccccc3c2)c1,i
COC(=O)c1ccc2c(=O)n(-c3ccccc3)c(SCc3ccccc3)nc2c1,23µg/mL*

Of the compounds above, seven have a nitro group on carbon.
canonical_smiles,Mtb growth
CCOCCCNS(=O)(=O)c1ccc([N+](=O)[O-])cc1,i
Cc1nc(/N=C(\N)Nc2cccc([N+](=O)[O-])c2)[nH]c(=O)c1C,i
CN1CCN(c2ccc([N+](=O)[O-])cc2C(=O)c2ccc(Br)cc2)CC1,i
Cn1c(CNC(=O)c2cccc([N+](=O)[O-])c2)nnc1SCC(=O)Nc1cc(C(F)(F)F)ccc1Cl,i
Cc1ccc(S(=O)(=O)NCCC(C)C)cc1[N+](=O)[O-],i
O=C(CCNc1ccc(Cc2ccncc2)cc1)c1ccc([N+](=O)[O-])cc1,4.4µg/mL*
CC(C)C(=O)NC(c1ccco1)c1cc([N+](=O)[O-])c2cccnc2c1O (stereo unspecified),i

The list continues.
canonical_smiles,Mtb growth
C=CCn1c(SCC(=O)N2CCN(c3ccccc3)CC2)nnc1-c1cccc(C)c1,i
C=CCNC(=O)C1CCCCC1C(=O)O (stereo unspecified),i
COc1ccc(N2CCN(S(=O)(=O)c3ccc(OC)c([N+](=O)[O-])c3)CC2)cc1,i
Cc1ccc(S(=O)(=O)N2CCN(c3ccc([N+](=O)[O-])c(NCCc4ccccc4)c3)CC2)cc1C,i
CC1CCN(C(=O)CN(C)S(=O)(=O)c2cc(Cl)ccc2Cl)CC1,i
CCOC(=O)c1c(-c2ccc(OC)cc2)csc1NC(=O)c1ccc(C)cc1,i
Cc1ccc(C(=O)NCc2occc2C(=O)O)o1,i
CCc1c(C)sc(NC(=S)Nc2cc([N+](=O)[O-])ccc2OC)c1C(=O)OC,i
Cc1cccc(NC(=O)CN(c2ccccc2F)S(C)(=O)=O)c1C,i
Cc1ccc(CN(CC(=O)N2CCCCC2)S(=O)(=O)c2ccc(Cl)cc2)cc1,7%
CCc1c2c(nc3sc(C(=O)N4CCOCC4)c(N)c13)CC(C)(C)CC2=O,i
Cc1c(OCC(=O)Nc2ccc3c(c2)OCCO3)ccc2c1oc(=O)c1ccccc12,i
COCc1nnc(NC(=O)C(C)C)s1,i
CCCn1nnnc1NCc1c(F)cccc1Cl,1%
O=C(NCc1cccnc1)c1sc2cc(F)ccc2c1Cl,i
CCOC(=O)N1CCN(C(=O)c2cc3cccc(OC)c3oc2=O)CC1,i
COCCCNC(=S)N1CCN(c2ccc(Cl)c(Cl)c2)CC1,i
Cc1ccc(C)c(C(=O)NCc2cccnc2)c1,i
COc1cc(OC)c(NC(=O)c2oc3ccccc3c2C)cc1Cl,1%
CC(=O)c1cccc(Nc2nc(C)cc(C)n2)c1,i

A draw from above in order of molecular weight, low to high.
canonical_smiles,Mtb growth
Cc1cc(C)n(C(=O)c2cc(Cl)ccc2Cl)n1,1%
Cc1c(Cl)cccc1NC(=S)NC1CC(C)(C)NC(C)(C)C1,i
Cc1cccc(NC(=O)CN(c2ccccc2F)S(C)(=O)=O)c1C,i

Other compounds
canonical_smiles,Mtb growth
COc1ccc(NC(=O)C2=C(C)NC(=O)NC2c2cc(OC)c(O)cc2Br)cc1 (stereo unspecified),i
CCc1ccccc1NC(=O)CSc1nnc(-c2ccc(C)cc2)n1CC,i
CCC(C)Cn1c(CO)nc2ccccc21 (stereo unspecified),i
CCN(CC)S(=O)(=O)c1ccc(OC)c(NC(=O)COc2cccc(Cl)c2)c1,3%
O=C(O)C1C2CCC(C2)C1C(=O)Nc1nc(-c2ccc(F)cc2F)cs1 (stereo unspecified),i
O=C1c2ccccc2C(=O)N1CCc1nc2ccccc2c(=O)n1-c1ccc(F)cc1,i
CC(=O)c1cc(F)c(N2CCN(C(=O)Cc3ccccc3)CC2)cc1C,i
CCC(C)NS(=O)(=O)c1ccc(NC(=O)CCc2ccccc2)cc1 (stereo unspecified),0%
COc1ccc(CCNC(=O)C(=O)Nc2ccc(C(C)(C)C)cc2)cc1OC,i
Cc1cccc(S(=O)(=O)NCCc2ccccc2)c1,10%
CSc1cccc(NC(=O)CCSc2ccc(Cl)cc2)c1,i
O=C1c2[nH]nc(-c3ccccc3)c2C(c2ccc(F)cc2)N1c1ccccc1 (stereo unspecified),?
CCOC(=O)CC(C)(O)c1ccccc1 (stereo unspecified),5%
C=CCNC(=S)Nc1ccc(C)c(C)c1,i
COc1ccc2[nH]c(C(=O)O)c(CCC(=O)O)c2c1,i
CC(Oc1ccc(C(C)(C)C)cc1)C(=O)Nc1ccccc1C(N)=O (stereo unspecified),7%
COc1ccc(-c2csc(NC(=S)NC(=O)c3ccco3)n2)cc1OC,i
Cc1ccc(-n2c(C)cc(C=O)c2C)cc1C,i
COc1cc2c(cc1OC)C(c1ccc(Cl)cc1)CC(=O)N2 (stereo unspecified),i
Cc1c(Cl)cccc1N(CC(=O)Nc1cccc(F)c1)S(=O)(=O)c1ccccc1,i

New compounds follow
Molecule,Mtb growth
O=c1[nH]cnc2scc(C3COc4ccccc4O3)c12 (stereo unspecified),i
C=C(C)c1cccc(C(C)(C)NC(=O)N2CCN(c3ccc(F)cc3)CC2)c1,6%
N#CCCN(CCC#N)C(=O)CSc1ccccc1,i
CCc1cccc(C)c1NC(=O)COc1ccc(S(=O)(=O)NC2CCCCC2)cc1Cl,6%
Cc1nc2ccc(F)cc2cc1C(=O)NCc1ccco1,2%
Cc1ccc(NC(=O)CSc2nc(C)nc3ccccc23)cc1,i
COc1ccc(OC)c(Nc2nc(-c3cccc([N+](=O)[O-])c3)nc3ccccc23)c1,i
Oc1ccccc1CNc1ccc2c(c1)ncn2C1CCCCC1,?
O=C1C2C3C=CC(O3)C2C(=O)N1CC(O)c1ccccc1 (stereo unspecified),i
CC1CCN(c2ccc(NC(=O)c3ccccc3F)cc2)CC1,2%
COc1cc(NC(=O)CCc2ccccc2)c(C(=O)O)cc1OC,i
Cn1c(/C=C(\C#N)C(N)=S)ccc1-c1cccc(Cl)c1,i

Three of these compounds, reformatted:
> CC1CCN(c2ccc(NC(=O)c3ccccc3F)cc2)CC1
- Mtb growth: 2%
> COc1cc(NC(=O)CCc2ccccc2)c(C(=O)O)cc1OC
- Mtb growth: i
> Cn1c(/C=C(\C#N)C(N)=S)ccc1-c1cccc(Cl)c1
- Mtb growth: i

More records:
Molecule,Mtb growth
S=C(NCc1ccco1)N1CCN(C/C=C/c2ccccc2)CC1,i
N#Cc1ccc(Nc2ccccc2)c(N)c1,8%
CCCCc1ccc(NC(=O)C(=O)NCc2ccc(F)cc2)cc1,1%
CC1=NN(C(=O)c2ccc(O)cc2)C(O)(C(F)(F)F)C1 (stereo unspecified),i
CCOC(=O)c1c(NC(=O)C2CC=CCC2C(=O)O)sc(C)c1-c1ccc(Cl)cc1 (stereo unspecified),i
CC(C(=O)Nc1ccc2c(c1)OCCO2)c1ccc([N+](=O)[O-])cc1 (stereo unspecified),i
COc1ccc(Cl)cc1N1C(=O)CC(N2CCC(C)CC2)C1=O (stereo unspecified),i
O=C(OCc1cccc([N+](=O)[O-])c1)c1ccc2c(c1)-c1ccccc1C2=O,i
C=CCNCCCOc1cccc(OCC)c1,i
O=c1cc(Br)c2ccccc2o1,0%
CN(C)c1ccc(NC(=O)C(=O)NCCCCc2ccccc2)cc1,i
CCOc1cccc(CNCCO)c1OCc1ccc(Cl)cc1Cl,12%
O=C(Cc1ccccc1)Nc1cccc(C(=O)O)c1,i
Cc1ccc(Cl)c2c1NC(=O)C2(O)CC(=O)c1ccc(Br)s1 (stereo unspecified),i
Cc1ccccc1C(=O)Nc1sc2c(c1C(=O)NCc1ccco1)CCCC2,13%
CCN(CC)C(=O)c1sc2nc(Cc3ccccc3)cc(C(F)(F)F)c2c1N,i
Cc1ccc(CC(=O)N2CCN(c3ccc([N+](=O)[O-])cc3)CC2)cc1,1%
COc1cccc(NC(=O)CSc2nnc(C(NC(=O)c3ccc(Cl)cc3)C(C)C)n2C)c1 (stereo unspecified),i
COc1ccc(-c2nc3ccccc3c(=O)n2-c2ccc(Cl)cc2)cc1,3%
COc1ccc(F)cc1CN1CCN(c2ncnc3scc(-c4ccc(F)cc4)c23)CC1,i
COCCn1c(SCC(=O)c2ccc(Cl)cc2)nnc1-c1ccc(Cl)cc1,i

Assay outcomes as filed in PubChem.
